Assay outcomes (PubChem)
H5N1 antiviral – MDCK cell protection from H5N1 avian flu | cytopathic effect, luminescence, 72 h; active compounds read high; no value below 0 was filed and about half of the inactive calls have no number; reference of the scale not given here | inhibition, % at 50 µM | actives 0.07% (n = 96,000) | AID 740; in the data active = inhibition above about 25%
* = called active by the depositor; i = inactive.

Sample of the layout:
SMILES	H5N1 antiviral
O=C1c2cccnc2C(O)N1C1CCCCC1 (stereo unspecified)	i
COc1ccc(OC)c(N(CC(=O)Nc2ccc3c(c2)OCCO3)S(C)(=O)=O)c1	i
Cc1cc(C)c(C)c(OCCOCCN2CCOCC2)c1	0.1
CC1CC(C)CN(CC(=O)N2c3ccccc3CCc3ccccc32)C1 (stereo unspecified)	1.1
Cc1ccc2c(c1)C(C)(C)[C@]1(C)NC(=O)CCN21	i
O=C(Cc1ccccc1)NNC(=O)c1cccs1	1.1
COc1cc(NC(=O)C2CCCN2C(=O)C2CCC(C)CC2)cc(OC)c1OC (stereo unspecified)	i
COc1ccc(Cn2c(CCC(=O)N3CCN(c4ccccn4)CC3)nc3ncccc3c2=O)cc1	1.9
COc1ccc(S(=O)(=O)Nc2ccccc2C(=O)NCc2ccco2)cc1Br	i
O=c1[nH]c2ccccc2c(=O)n1Cc1ccco1	i
COc1cc(C(=O)Nc2cccc(-c3nc4ccccc4o3)c2C)cc(OC)c1OC	i
CC(C)CNc1cc(=O)n(C)c(=O)n1C	0.1
CCCCNC(=O)OCC(CC)NC(=O)OC(C)C (stereo unspecified)	i
COC(=O)c1nc2nc(C)cc(=O)n2[nH]1	i
Cc1ccc(/C=N/NC(=S)NC(C)C)o1	3.7
O=C(NCc1ccccc1)NC1(C(=O)N2CCOCC2)CCCCC1	i
CCSc1nnc(NC(=O)C(C)(C(F)(F)F)C(F)(F)F)s1	0.9
CCCCNC(=S)NNC(=O)c1csc2ccccc12	i
COc1cc(S(=O)(=O)N2CCCCC2)ccc1NC(C)=O	0.1
O=C(c1cnn(-c2ccccc2)c1)c1ccc2ccccc2c1O	i
O=C(O)CSc1nnc(Cn2nnc3ccccc32)n1CCc1ccccc1	0.8

The list itself, repeating the preview:
SMILES	H5N1 antiviral
O=C1c2cccnc2C(O)N1C1CCCCC1 (stereo unspecified)	i
COc1ccc(OC)c(N(CC(=O)Nc2ccc3c(c2)OCCO3)S(C)(=O)=O)c1	i
Cc1cc(C)c(C)c(OCCOCCN2CCOCC2)c1	0.1
CC1CC(C)CN(CC(=O)N2c3ccccc3CCc3ccccc32)C1 (stereo unspecified)	1.1
Cc1ccc2c(c1)C(C)(C)[C@]1(C)NC(=O)CCN21	i
O=C(Cc1ccccc1)NNC(=O)c1cccs1	1.1
COc1cc(NC(=O)C2CCCN2C(=O)C2CCC(C)CC2)cc(OC)c1OC (stereo unspecified)	i
COc1ccc(Cn2c(CCC(=O)N3CCN(c4ccccn4)CC3)nc3ncccc3c2=O)cc1	1.9
COc1ccc(S(=O)(=O)Nc2ccccc2C(=O)NCc2ccco2)cc1Br	i
O=c1[nH]c2ccccc2c(=O)n1Cc1ccco1	i
COc1cc(C(=O)Nc2cccc(-c3nc4ccccc4o3)c2C)cc(OC)c1OC	i
CC(C)CNc1cc(=O)n(C)c(=O)n1C	0.1
CCCCNC(=O)OCC(CC)NC(=O)OC(C)C (stereo unspecified)	i
COC(=O)c1nc2nc(C)cc(=O)n2[nH]1	i
Cc1ccc(/C=N/NC(=S)NC(C)C)o1	3.7
O=C(NCc1ccccc1)NC1(C(=O)N2CCOCC2)CCCCC1	i
CCSc1nnc(NC(=O)C(C)(C(F)(F)F)C(F)(F)F)s1	0.9
CCCCNC(=S)NNC(=O)c1csc2ccccc12	i
COc1cc(S(=O)(=O)N2CCCCC2)ccc1NC(C)=O	0.1
O=C(c1cnn(-c2ccccc2)c1)c1ccc2ccccc2c1O	i
O=C(O)CSc1nnc(Cn2nnc3ccccc32)n1CCc1ccccc1	0.8
CC1(C)C(=O)OC(c2c(F)c(F)c(F)c(F)c2F)C2(CCCCC2)C1=O (stereo unspecified)	1.3
CCOC(=O)N1CCN(Cc2ccccc2Cl)CC1	i
CCC(=O)Nc1cccc(-c2nnc(-c3cccc(NC(=O)CC)c3)o2)c1	i
COc1cc2c3c(c1)C1(C(=O)N3C(C)(C)C=C2C)C(C#N)=C(N)Oc2cc(O)ccc21 (stereo unspecified)	i
Following part:
SMILES	H5N1 antiviral
CCc1ccccc1-n1c(SCC(=O)N2CCCC2)nnc1-c1ccccn1	0.7
COc1ccc2[nH]c(C(=O)O)c(CCNC(C)=O)c2c1	i
COC(=O)c1ccc(CSc2nccn2C)cc1	1.0
N#Cc1nc(-c2ccccc2F)oc1N1CCCC1	1.0
N#C/C(=C\c1cc(Cl)cc(Cl)c1O)C(=O)NC1CCCCC1	i
O=C(COc1ccc2c3c(c(=O)oc2c1)CCC3)NC1CCCCC1	1.2
CCOC(=O)c1cc(=O)cc(C(=O)OCC)o1	i
CCOC(=O)C(=O)c1csc(NC(=O)COc2ccc(N(C)S(=O)(=O)c3ccc(F)cc3)cc2)n1	0.1
O=C(CCCn1c(=S)[nH]c2ccccc2c1=O)N1CCOCC1	0.4
Cc1cc(NC(=O)CSc2ccc(Cl)cc2)no1	1.4
CCN(CC)C(=O)C1CCCN(C(=O)Nc2ccc3nsnc3c2)C1 (stereo unspecified)	2.3
CC(=O)/C(=N\Nc1ccc(C)cc1)N1CCOCC1	2.3
CCC1(C)N([O-])C(C)=C(c2ccccc2)[N+]1=O (stereo unspecified)	1.6
CCOCCCNC(=O)CCS(=O)(=O)Cc1ccc(C)cc1	0.3
COc1ccc2nc3oc(C(=O)NC4CCN(Cc5ccccc5)CC4)cc3cc2c1	i
CCCC(=O)c1ccc(N2CCN(S(=O)(=O)c3ccc(C)cc3)CC2)c(F)c1	i
Cc1cc(C)nc(-n2nc(C)cc2NC(=O)CNCc2ccccc2)n1	2.4
CC1=NN(c2ccccc2)C(=O)C1/C=C1/C(=O)NC(=O)N(c2cc(C)cc(C)c2)C1=O (stereo unspecified)	i
COc1ccc(OCCCN2CCCC(C)C2)cc1 (stereo unspecified)	i
COc1cc(CN2CCN(c3cccc(C)c3C)CC2)cc(OC)c1O	i
COc1cccc(CN2CCN(C(=O)CC(C)C)CC2)c1	i
O=C(O)c1ccc(Br)c(S(=O)(=O)N2CCCC2)c1	i
CCOc1cc(C2C(C(=O)N3CCCCC3)=C(C)NC3=C2C(=O)CC(C)(C)C3)ccc1O (stereo unspecified)	1.4
CC1(C)Cc2ccccc2C(N)=C1C#N	0.2
Cc1cc(C)c2c(-n3cccc3)nn(CC#N)c2n1	1.4
(cont.)
SMILES	H5N1 antiviral
CCCOc1ccc(N2C(=O)CC(S/C(N)=N/N=C(\C)c3cccs3)C2=O)cc1 (stereo unspecified)	0.6
Clc1ccc(Cn2ncc3c(NCc4ccccc4)ncnc32)cc1	i
Cc1[nH]n(-c2ccc([N+](=O)[O-])cc2)c(=O)c1C=NCCN1CCN(C(=O)c2ccc(F)cc2)CC1	i
O=C(C1CC(c2ccccc2O)=NO1)N1CCCCC1 (stereo unspecified)	i
O=C(NNC1CC(=O)N(c2ccc3c(c2)OCCO3)C1=O)c1ccccc1 (stereo unspecified)	0.4
CC(=O)Nc1ccc(S(=O)(=O)NCc2ccc(C(=O)NCc3ccc4c(c3)OCO4)cc2)cc1	0.3
Cc1ccc(-c2nc3ccccc3s2)cc1NC(=O)c1cc(-n2cnnc2)ccc1Cl	0.1
O=C(NCCCN1CCOCC1)c1cc2cc(Br)ccc2oc1=O	0.7
Cc1ccccc1CN(c1ccc(C(=O)N2CCCC2)cc1)S(C)(=O)=O	1.4
COc1ccc(C2CC(=O)N3CN(c4ccccc4F)CSC3=C2C#N)cc1OC (stereo unspecified)	0.9
CC(=O)Nc1cccc(-c2nc3ccc(NC(C)=O)cc3[nH]2)c1	0.3
CCOC(=O)c1nnn(-c2nonc2N)c1-c1ccc(OCC)cc1	1.5
O=C(CSc1nccn1-c1ccc(F)cc1)NCc1ccc2c(c1)OCO2	0.9
CCn1c(SCC(=O)N2CCCc3ccccc32)nc2ccccc2c1=O	4.4
CSc1ccc(S(=O)(=O)Nc2cccc(F)c2)cc1	0.1
Cc1ccccc1/C=N\NC(=O)c1csnn1	i
O=C(O)C1CCC(=O)N1C1c2ccccc2Oc2ccccc21 (stereo unspecified)	i
COc1ccc(-n2nc3c(c2NC(=O)c2ccc(Br)cc2)CS(=O)C3)cc1 (stereo unspecified)	i
COc1cc(OC)c(C2=NOC(C(=O)O)C2)cc1Cl (stereo unspecified)	i
CCN1CCN(CCNC(=O)CCCCCn2c(=O)[nH]c3cc(C(=O)OC)ccc3c2=O)CC1	0.0
CCCCC(=O)N1CCCC(c2nc3c(nnn3Cc3cc(C)ccc3C)c(=O)[nH]2)C1 (stereo unspecified)	i
CN(Cc1nc(-c2ccncc2)no1)S(=O)(=O)c1ccccc1	1.5
CCOc1ccc(NC(=O)CS(=O)(=O)c2cn(C)c3ccccc23)cc1	0.3
O=P(COc1ccccc1)(c1ccccc1)c1ccccc1	1.4
CCOC(=O)CC(=O)CSc1ccc2nnc(-c3ccc(C)cc3)n2n1	2.0
Carrying on.
SMILES	H5N1 antiviral
Cc1cccc(Cn2c(N3CCN(c4ccccc4)CC3)nc3c2c(=O)n(C)c(=O)n3C)c1	2.7
CCC(=O)Oc1ccc(C(=O)Nc2cccc(C(=O)c3ccccc3)c2)cc1	2.9
CC(C)(C)c1ccc(Cn2ccc(-c3ccc4c(c3)OCO4)n2)cc1	1.8
O=C(OCC(=O)N1CCN(c2ccccc2)CC1)c1ccco1	1.3
Nc1nonc1C(=O)NCCc1ccccc1	0.9
C=C(C)c1cccc(C(C)(C)NC(=O)Nn2cnnc2)c1	i
O=C(COC(=O)C1CCCCC1C(=O)N1CCc2ccccc21)NCc1ccco1 (stereo unspecified)	0.5
CCc1ccc(NC(=O)CSc2nnc(Cn3c(=O)sc4ccccc43)n2C)cc1	0.7
Cc1ccc(NS(=O)(=O)c2cc(C(N)=O)ccc2C)cc1	i
CC(C)OC(=O)c1cccc(C(=O)Oc2ccc(Br)cc2)n1	0.1
Cc1ccc(C(=O)C2OC(=O)C(C)(C)C(=O)C2(C)C)cc1 (stereo unspecified)	0.8
Cc1cc2c3c(ccc(C)c3n1)N=CN2c1ccccc1	1.7
COc1ccc(NC(=O)Nc2c(C)n(C)n(-c3ccccc3)c2=O)cc1	i
CCOC(=O)c1[nH]c(C)c(C(=O)N(C)C)c1C	i
O=C1C=C(NCC2CCCO2)C2(CCCCC2)O1 (stereo unspecified)	i
COC(=O)c1c(C)cc(C)n2c1nc1ccccc12	2.0
O=C(CCn1c(=O)oc2ccccc21)N1CCC2(CC1)OCCO2	0.8
Cc1cc(NC(=O)CS(=O)(=O)c2cn(Cc3ccc(F)cc3)c3ccccc23)no1	2.0
COC(=O)C1=C(N)n2c(s/c(=C\c3cccnc3)c2=O)=C(C(=O)OC)C1c1cccnc1 (stereo unspecified)	1.2
Clc1ccc(-n2ncc3c(NCc4ccco4)ncnc32)cc1	i
C=C(C)CSc1nc(N)c2c3c(sc2n1)CCC3	i
N#Cc1c(NC(=O)CSC2=NCCS2)sc2c1CCCC2	3.5
CCN(CC)c1ncc(C)c(=O)[nH]1	i
O=C(NC1=NCCS1)c1ccc2c(c1)C(=O)N(Cc1ccco1)C2=O	i
CCOC(=O)c1c(C)n(C)c2ccc(OCC(O)CN(CC)CC)cc12 (stereo unspecified)	0.6
The listing continues:
SMILES	H5N1 antiviral
CCOc1ccc2nc(NC(=S)NCc3ccccc3)sc2c1	i
Cc1cccc2cc(COC(=O)C(C)C)c(=O)[nH]c12	i
COC(=O)c1c(C)n(-c2ccc(OC)cc2)c2ccc(O)cc12	0.9
COc1ccc(-c2nnn(CC(=O)N(Cc3cccs3)C(C)C(=O)NCCC(C)C)n2)cc1OC (stereo unspecified)	i
CCOC(=O)c1cc(-c2ccccc2)nc2c1c(C)nn2-c1ccccn1	3.3
COc1cc(/C=N/Nc2nc(Nc3ccc(C)cc3)nc(-n3nc(C)cc3C)n2)cc(OC)c1OC	i
CCOc1ccc(C2/C(=C(\O)c3c(C)[nH]c(C(=O)OC)c3C)C(=O)C(=O)N2CCN(C)C)cc1 (stereo unspecified)	1.5
COc1ccc(OC)c(NC(=O)CC(Cc2ccccc2OC)C(=O)O)c1 (stereo unspecified)	i
COc1ccc(NC(=O)c2sc3cc(C(F)(F)F)cnc3c2-c2cccs2)cc1	i
Cc1nnc(NC(=O)c2ccc(-c3cccc(C(F)(F)F)c3)o2)s1	i
Cc1cc(N2C(=O)C(=O)/C(=C(/O)c3ccc(F)cc3)C2c2ccc(Cl)cc2)no1 (stereo unspecified)	0.3
Cn1cccc1C(=O)NC(=O)COC(=O)c1ccccc1O	i
Cc1nc(SCC(=O)N2CC(C)OC(C)C2)nc(C)c1C (stereo unspecified)	0.6
O=C(Nc1ccccc1)N1CCC(C(=O)N(Cc2ccco2)Cc2cccs2)CC1	i
Cc1ccc2nsnc2c1S(=O)(=O)N1CCN(CCc2ccccc2)CC1	0.5
Cc1cnc(C(=O)OCC(=O)NC(C)C)cn1	i
Cc1ccc(-n2c(C)cc(/C=N/NC(=O)c3ccncc3)c2C)cc1	0.2
CCCc1nnc(NC(=O)CCCN2C(=O)c3ccccc3C2=O)s1	i
CCCC1(CCC)C(=O)NC(=NCc2ccccc2)NC1=O	i
COc1ccc(S(=O)(=O)Nc2ccc(S(=O)(=O)N3CCCCC3)cc2)cc1OC	i
COc1cc2c(cc1NC(=O)c1ccc(C(C)(C)C)cc1)CCCC2	i
CCOc1ccc(C(=O)Nc2c3c(nn2C(C)(C)C)CSC3)cc1OCC	i
CC(=O)Nc1ccc(NC(=O)c2cc(C)nn2-c2ccccc2)cc1	0.8
CCCc1nc2sc(C(=O)OCC)c(N)c2c2c1COC(C)(C)C2	0.2
COc1ccccc1CC(=O)O/N=C(\N)c1cccc([N+](=O)[O-])c1	i
Carrying on:
SMILES	H5N1 antiviral
CCC1CCCCN1CCCn1c(=S)[nH]c2ccccc2c1=O (stereo unspecified)	0.2
Cc1ccc(N2C(=O)CC(Sc3nc4ccccc4o3)C2=O)cc1Cl (stereo unspecified)	i
CN(C)c1ccc(N=Cc2ccco2)cc1	1.0
O=C(Cc1ccccc1)Nc1cccc(N2CCCC2)c1	i
Cc1ccc2oc(Nc3nc(C)cc(C)n3)nc2c1	1.0
Cc1cc(NC(=O)CSc2nc3c(sc4ccccc43)c(=O)n2CCc2ccccc2)n[nH]1	1.4
Cc1nn(C)c(C)c1CN(C)C(=O)c1cc2n(n1)C(C(F)(F)F)CC(c1cccs1)N2 (stereo unspecified)	5.1
COc1ccc(S(N)(=O)=O)cc1C(=O)NCCCN1CCN(c2ccc(C)cc2)CC1	i

Two entries from above, field by field:
mol: Cc1ccc(N2C(=O)CC(Sc3nc4ccccc4o3)C2=O)cc1Cl (stereo unspecified)
  H5N1 antiviral: i
mol: CN(C)c1ccc(N=Cc2ccco2)cc1
  H5N1 antiviral: 1.0

This is a subset; the hit share may differ from the screen's.
